D2 PAM: positive allosteric modulators of human D2 dopamine receptor. actives 0.23% (n = 360,000). DiscoveRx D2 beta-arrestin cells, luminescence, 90 min; 100% = 57 uM dopamine signal. P14416. potentiation, % (test concentration not listed); active = potentiation of 50% or more; inconclusive = 30% to 50%; inactive = 30% or less;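 note: compound concentration not given in the record; tested on top of an EC20 dose of dopamine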
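D2 cells co-treated with compound plus 50 nM dopamine (EC20) for 90 min at 37 deg C to detect potentiation. Beta-arrestin recruitment was read as enzyme-fragment luminescence after 1 h at ambient temperature. Full response was set by 57 uM dopamine.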
gsp agonist: activates gsp, the McCune-Albright syndrome mutation. gsp mutant cells, cAMP HTRF, 30 min; control for the full effect not named in the record. Potency, µM (titrated, usually from 76.9 µM), inactives show at the top dose activation (cAMP increase), hits mostly activators. actives 0.13% (n = 340,000); active = well fitted activation curve with a large enough effect; inconclusive = small, poorly fitted or top-dose-only effect, or another doubt; inactive = no such curve, though single readings can be large or run the other way; cell line not stated here;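 note: phosphodiesterase inhibitor Ro 20-1724 added with compounds to block cAMP breakdown; potency is the fitted concentration of half-maximal effect; nearly all actives have a fitted effect of over 60% in size; about a fifth of the inactives were tested at one dose only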
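Cells stably selected in G418 were plated at 2000/well, grown 16-24 hr, then given compounds in DMSO with the PDE inhibitor […] (300 uM solution added) for 30 min at 37C; cAMP was read by HTRF.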
Six1-Eya2 inh: inhibitors of human Six1/Eya2 interaction | Q15475+O00167 | AlphaScreen GST-Six1/His-Eya2 binding, biochemical; stronger effect = lower value; control for the full effect not named in the record | activity change, % (no concentration beside the values) | actives 0.56% (n = 360,000); in the data active = activity change below about -65%; inconclusive = about -30% to -65%; inactive = above about -30%; note: % is set by controls: 0 for no effect and ±100 for the full control effect; compound concentration not given in the record
Target sequence (O00167 whole entry, looked up): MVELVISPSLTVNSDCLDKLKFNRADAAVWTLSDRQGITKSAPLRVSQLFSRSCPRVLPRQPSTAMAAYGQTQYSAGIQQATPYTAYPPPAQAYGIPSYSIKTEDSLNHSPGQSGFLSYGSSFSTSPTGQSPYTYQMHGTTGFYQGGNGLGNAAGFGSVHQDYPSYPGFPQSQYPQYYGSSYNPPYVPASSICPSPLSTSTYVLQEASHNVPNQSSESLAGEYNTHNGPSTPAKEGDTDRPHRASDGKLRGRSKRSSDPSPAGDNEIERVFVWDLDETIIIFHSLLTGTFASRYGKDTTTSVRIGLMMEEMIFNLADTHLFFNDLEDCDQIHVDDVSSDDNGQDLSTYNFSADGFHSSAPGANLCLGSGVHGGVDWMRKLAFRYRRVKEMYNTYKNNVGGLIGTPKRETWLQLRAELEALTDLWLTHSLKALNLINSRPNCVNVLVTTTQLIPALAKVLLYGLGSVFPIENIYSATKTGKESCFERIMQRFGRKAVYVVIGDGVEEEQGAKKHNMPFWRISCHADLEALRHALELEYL
Target sequence (Q15475 whole entry, looked up): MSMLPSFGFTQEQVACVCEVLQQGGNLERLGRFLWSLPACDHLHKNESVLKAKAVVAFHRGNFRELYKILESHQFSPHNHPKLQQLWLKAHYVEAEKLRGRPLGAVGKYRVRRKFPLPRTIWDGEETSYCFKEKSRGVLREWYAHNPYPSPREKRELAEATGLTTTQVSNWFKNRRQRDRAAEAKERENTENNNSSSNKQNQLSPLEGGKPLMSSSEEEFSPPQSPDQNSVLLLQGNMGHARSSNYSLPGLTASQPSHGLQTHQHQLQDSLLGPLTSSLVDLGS
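Homogeneous AlphaScreen proximity assay pairing GST-Six1 with His-tagged Eya2 (added as 5X mix: 250 nM and 500 nM) in 50 mM Tris pH 8.0, 300 mM NaCl, 1 mM TCEP. Glutathione donor and nickel acceptor beads; 1 h, 37 °C, dark.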
D2 ag: agonists of human D2 dopamine receptor (beta-arrestin) | AID 624465 | actives 0.084% (n = 360,000) | DiscoveRx PathHunter D2 beta-arrestin, luminescence, 90 min; 100% = 57 uM dopamine signal | activation, % (concentration not given with the values) | P14416; in the data active = activation above about 40%; inconclusive = about 15% to 40%; inactive = below about 15%; note: compound concentration not given in the record; the text of the record calls up to 30% inactive
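Agonist mode: compounds alone added to overnight-plated D2 PathHunter cells for 90 min at 37 C, with 57 uM final dopamine (EC100) defining full response. Beta-arrestin recruitment detected by chemiluminescent reagent, read after 1 h at ambient temperature.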
gsp antag: antagonizes gsp, the McCune-Albright syndrome mutation; gsp-mutant cells, cAMP HTRF, 30 min; control for the full effect not named in the record; Potency, µM (doses to about 76.9 µM), for the others: top-dose activity change, negative = inhibition, usual class: inhibitors; actives 0.4% (n = 340,000); AID 624288; active = falling curve of any shape with a large fitted effect; inconclusive = falling curve, mostly with a smaller effect; inactive = flat or rising curve; cell line not stated here;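 note: intracellular cAMP measured with PDE inhibitor Ro 20-1724 present during compound exposure; potency is the fitted concentration of half-maximal effect; % is set by controls: 0 for no effect and ±100 for the full control effect; nearly all actives have a fitted effect of over 65% in size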
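Measurement of cellular cAMP by homogeneous time-resolved fluorescence following a 30 min compound exposure at 37C. The PDE inhibitor […] was present throughout; the assay buffer was DPBS with 0.05% BSA and 0.005% Tween 20.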
CtBP-E1A inh: CtBP/E1A binding inhibition; AlphaScreen GST-E1A/His-CtBP binding, 1536-well; stronger effect = lower value; control for the full effect not named in the record; activity change, % (test concentration not listed); actives 0.49% (n = 340,000); AID 651724; in the data active means activity change below about -65%; inconclusive means about -30% to -65%; inactive means above about -30%; note: % is set by controls: 0 for no effect and ±100 for the full control effect; compound concentration not given in the record
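Protein mix (5X: 125 nM each GST-E1A, His-CtBP) was incubated with pinned compound 2 h at 37 deg C in dark, in 50 mM Tris pH 8.0 buffer with 300 mM NaCl. Glutathione donor and nickel acceptor beads followed; AlphaScreen signal read after 1 h.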
* marks the source's active call; other numbers are inactive results; ? = inconclusive; . = no result given; & = joins results of further samples. Not all compounds are listed; the hit share may differ from the screen's.

Preview, 2 compounds:
(1) CN1CCC(=C2c3ccccc3CCc3sccc32)CC1
(2) O=C1N(c2ccccc2)c2ccccc2C1(Cc1ccncc1)Cc1ccncc1

| assay / compound | 1 | 2 |
| --- | --- | --- |
| CtBP-E1A inh | -12 | 0 |
| D2 PAM | -36 | -14 |
| Six1-Eya2 inh | -16 | 11 |
| gsp antag | -15% | 0% |
| D2 ag | -7.5 | -1.5 |
| gsp agonist | . | . |

The listing (from the top)
(1) CN1CCC(=C2c3ccccc3CCc3sccc32)CC1
(2) O=C1N(c2ccccc2)c2ccccc2C1(Cc1ccncc1)Cc1ccncc1
(3) CC(=O)[C@H]1CC[C@H]2[C@@H]3C[C@H](C)C4=CC(=O)CC[C@]4(C)[C@H]3[C@@H](O)C[C@]12C
(4) CCCOc1ccccc1-c1nc2n[nH]nc2c(=O)[nH]1
(5) CCOC(=O)C1(CCOc2ccccc2)CCN(Cc2ccc(O)c(Cl)c2)CC1
(6) C[C@]12CC[C@H]3[C@@H](CCC4=CC(=O)CC[C@@]43C)[C@@H]1CC[C@@H]2C(=O)CO
(7) COc1ccccc1OCC(O)COC(N)=O (stereo not given)
(8) CCCn1ncc(CN2CCCC(C(=O)c3cccc(OC(C)C)c3)C2)c1C (stereo not given)

| assay / compound | 1 | 2 | 3 | 4 | 5 | 6 | 7 | 8 |
| --- | --- | --- | --- | --- | --- | --- | --- | --- |
| CtBP-E1A inh | -12 | 0 | 3 | -2 | . | 1 | 8 | . |
| D2 PAM | -36 | -14 | -3 | 2 | -73 | -21 | -16 | -24 |
| Six1-Eya2 inh | -16 | 11 | 3 | -2 | 3 | -1 | 1 | -3 |
| gsp antag | -15% | 0% | -15% | -21% | 4% | -18% | 1% | 6% |
| D2 ag | -7.5 | -1.5 | -2.4 | -2.5 | 1.1 | 2.3 | -2.0 | -3.8 |
| gsp agonist | . | . | . | . | 19% | . | . | -13% |

(9) O=C(O)[C@@H]1[C@H]2C[C@H]3c4[nH]c5ccccc5c4CCN3C[C@@H]2CC[C@@H]1O
(10) COc1cc2nc(N3CCN(C(=O)C4COc5ccccc5O4)CC3)nc(N)c2cc1OC (stereo not given)
(11) CC(=O)O[C@]1(C(C)=O)CC[C@H]2[C@@H]3C=C(Cl)C4=CC(=O)[C@@H]5C[C@@H]5[C@]4(C)[C@H]3CC[C@@]21C
(12) O=C1NCC2(CCN(CCc3ccccc3)CC2)O1
(13) CN(C)C/C=C(/c1ccc(Br)cc1)c1cccnc1
(14) N=C(N=C(N)N)N1CCOCC1
(15) CCC[C@H](N[C@@H](C)C(=O)N1[C@H](C(=O)O)C[C@@H]2CCCC[C@@H]21)C(=O)OCC
(16) COc1ccc(CN(CCN(C)C)c2ccccn2)cc1

| assay / compound | 9 | 10 | 11 | 12 | 13 | 14 | 15 | 16 |
| --- | --- | --- | --- | --- | --- | --- | --- | --- |
| CtBP-E1A inh | -15 | ? | -1&-3 | 7 | -12 | 7 | 9 | 0&10&-1 |
| D2 PAM | -29 | 9 | -5&5 | 1 | -36 | -2 | 7 | -29&-5&-20 |
| Six1-Eya2 inh | -17 | -16 | 7&3 | 5 | 4 | 1 | -2 | 0&3&-6 |
| gsp antag | -9% | -16% | -7%&-15% | 2% | 1% | -1% | 1% | -20%&5%&-2% |
| D2 ag | -0.4 | -0.5 | -2.9&-5.5 | -5.1 | -4.9 | -5.7 | -1.2 | -0.7&-4.9&-2.9 |
| gsp agonist | . | . | . | . | . | . | . | . |

(17) c1ccc2c(CC3=NCCN3)cccc2c1
(18) Nc1ccc(C(=O)Nc2ccccc2N)cc1
(19) CC1(C)OC2CC3C4CC(F)C5=CC(=O)C=CC5(C)C4(F)C(O)CC3(C)C2(C(=O)CO)O1 (stereo not given)
(20) C=C1c2cccc(O)c2C(=O)C2C(=O)[C@]3(O)C(=O)C(C(N)=O)C(=O)[C@@H](N(C)C)[C@@H]3[C@@H](O)[C@H]12 (stereo not given in full)
(21) COc1c(O)cc2c(c1O)C1OC(CO)C(O)C(O)C1OC2=O (stereo not given)
(22) Cc1onc(-c2ccccc2Cl)c1C(=O)N[C@@H]1C(=O)N2[C@@H]1SC(C)(C)[C@@H]2C(=O)O
(23) CC(C)=CC(=O)O[C@@H]1Cc2cc3ccc(=O)oc3cc2OC1(C)C
(24) NS(=O)(=O)c1cc2c(cc1C(F)(F)F)NC(Cc1ccccc1)NS2(=O)=O (stereo not given)

| assay / compound | 17 | 18 | 19 | 20 | 21 | 22 | 23 | 24 |
| --- | --- | --- | --- | --- | --- | --- | --- | --- |
| CtBP-E1A inh | 1 | -9 | 10 | ? | 4 | -24&-4 | 3 | 1 |
| D2 PAM | -20 | -4 | 5 | 3 | 1 | -8&0 | 4 | 0 |
| Six1-Eya2 inh | 2 | 5 | -1 | ? | -5 | 4&1 | -2 | 4 |
| gsp antag | 4% | -25% | -7% | -2% | -4% | 2%&-3% | -6% | -4% |
| D2 ag | -3.7 | -5.9 | 6.3 | 9.0 | -4.1 | -4.0&-7.0 | -1.2 | 1.0 |
| gsp agonist | . | -19% | 0% | . | . | . | . | . |

(25) Cc1nc2c3ccccc3nc(NNC(=O)CCC(=O)N3CCN(c4ccccc4)CC3)n2n1
(26) Cc1nnc(NS(=O)(=O)c2ccc(N)cc2)s1
(27) CCCCCCCCO
(28) CC(C)Cn1cnc2c1c(=O)n(C)c(=O)n2C
(29) O=c1cc[nH]c(=O)[nH]1
(30) CC1=NN(c2ccccc2)C(=O)C1
(31) CC(=O)N1C[C@H](O)C[C@H]1C(=O)O
(32) O=C(O)COC(=O)Cc1ccccc1Nc1c(Cl)cccc1Cl

| assay / compound | 25 | 26 | 27 | 28 | 29 | 30 | 31 | 32 |
| --- | --- | --- | --- | --- | --- | --- | --- | --- |
| CtBP-E1A inh | . | 4 | 3 | 1 | 6 | -5 | 6 | 6 |
| D2 PAM | -3 | -8 | -1 | -10 | -5 | -7 | -8 | 4 |
| Six1-Eya2 inh | 11 | 2 | -1 | 7 | 7 | 4 | -3 | 4 |
| gsp antag | 3% | 1% | 4% | -3% | -6% | -5% | 0% | 2% |
| D2 ag | 3.4 | -3.2 | 4.2 | 0.9 | -6.8 | -3.7 | 4.6 | 3.1 |
| gsp agonist | -9% | . | . | . | . | . | . | . |

(33) CN(C)CCCN1c2ccccc2Sc2ccccc21
(34) Nc1cc(-c2ccncc2)c[nH]c1=O
(35) CC1(C)O[C@H]2CC(=O)OCC23[C@H]2CC[C@@]4(C)[C@H](c5ccoc5)OC(=O)[C@H]5O[C@]54[C@]2(C)C(=O)C[C@@H]13 (stereo not given in full)
(36) Cc1coc2c1C(=O)C(=O)c1c-2ccc2c1CCCC2(C)C
(37) COc1nc(C)nc(Cl)c1NC1=NCCN1
(38) CCOc1ccc(S(=O)(=O)N2CCCCCC2)c2ccccc12
(39) C/C=C/C=N\NC(=O)c1ccncc1

| assay / compound | 33 | 34 | 35 | 36 | 37 | 38 | 39 |
| --- | --- | --- | --- | --- | --- | --- | --- |
| CtBP-E1A inh | -20 | ? | -1 | -15 | -18&2 | 11 | -4 |
| D2 PAM | -35 | 12 | -2 | 11 | -6&-10 | 3 | -12 |
| Six1-Eya2 inh | -16 | -1 | 0 | -7 | 5&0 | 0 | 3 |
| gsp antag | -1% | -5% | -16% | -12% | -1%&6% | -12% | -2% |
| D2 ag | -9.6&-6.0 | ? | -2.0 | ? | -6.8&-2.6 | -2.0 | -6.5 |
| gsp agonist | . | . | -6% | ? | . | -1% | . |

In a second layout: results already given.
No. | molecule | CtBP-E1A inh | D2 PAM | Six1-Eya2 inh | gsp antag | D2 ag | gsp agonist
26 | Cc1nnc(NS(=O)(=O)c2ccc(N)cc2)s1 | 4 | -8 | 2 | 1% | -3.2 | .
27 | CCCCCCCCO | 3 | -1 | -1 | 4% | 4.2 | .
28 | CC(C)Cn1cnc2c1c(=O)n(C)c(=O)n2C | 1 | -10 | 7 | -3% | 0.9 | .
29 | O=c1cc[nH]c(=O)[nH]1 | 6 | -5 | 7 | -6% | -6.8 | .
30 | CC1=NN(c2ccccc2)C(=O)C1 | -5 | -7 | 4 | -5% | -3.7 | .
31 | CC(=O)N1C[C@H](O)C[C@H]1C(=O)O | 6 | -8 | -3 | 0% | 4.6 | .
32 | O=C(O)COC(=O)Cc1ccccc1Nc1c(Cl)cccc1Cl | 6 | 4 | 4 | 2% | 3.1 | .
33 | CN(C)CCCN1c2ccccc2Sc2ccccc21 | -20 | -35 | -16 | -1% | -9.6&-6.0 | .
34 | Nc1cc(-c2ccncc2)c[nH]c1=O | ? | 12 | -1 | -5% | ? | .
35 | CC1(C)O[C@H]2CC(=O)OCC23[C@H]2CC[C@@]4(C)[C@H](c5ccoc5)OC(=O)[C@H]5O[C@]54[C@]2(C)C(=O)C[C@@H]13 (stereo not given in full) | -1 | -2 | 0 | -16% | -2.0 | -6%
36 | Cc1coc2c1C(=O)C(=O)c1c-2ccc2c1CCCC2(C)C | -15 | 11 | -7 | -12% | ? | ?
37 | COc1nc(C)nc(Cl)c1NC1=NCCN1 | -18&2 | -6&-10 | 5&0 | -1%&6% | -6.8&-2.6 | .
38 | CCOc1ccc(S(=O)(=O)N2CCCCCC2)c2ccccc12 | 11 | 3 | 0 | -12% | -2.0 | -1%
39 | C/C=C/C=N\NC(=O)c1ccncc1 | -4 | -12 | 3 | -2% | -6.5 | .

Screens from PubChem.
